# Bioassay records: PubChem BioAssay, National Center for Advancing Translational Sciences (NCATS)
# PINK1 modulator = A Quantitative High throughput Screen to Identify Chemical Modulators of PINK1 Expression. PINK1 immunofluorescence, high-content cytometry, 24 h. Potency, µM (top dose mostly 76.6 µM), inactives show at the highest dose activation (PINK1 increase), most hits filed as activators. 410,000 compounds, 0.2% hits. AID 624263, 2012; active = well fitted activation curve with a large enough effect; inconclusive = small, poorly fitted or top-dose-only effect; inactive = flat fitted curve, though single readings scatter; cell line not stated here;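 further: potency means the concentration at half of the fitted maximal effect; % of control where 0% means no effect; nearly all actives have a fitted effect of over 65% in size; a mitochondrial uncoupler was the plate control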
#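 Cells are seeded, rested 12 hours, then given compound at five concentrations or DMSO for 24 hours. After fixation, blocking and antibody staining, PINK1 amount and mitochondrial localization are scored; CCCP serves as control.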
# Sfp PPTase inh = qHTS Assay for Inhibitors of Bacillus subtilis Sfp phosphopantetheinyl transferase (PPTase). 4'-phosphopantetheinyl transferase ffp (Bacillus subtilis), Q9F4F7. Potency, µM, for the others: max response, negative = inhibition, hits mostly inhibitors. 310,000 compounds, 3.5% hits. AID 1490, 2009. Biochemical Sfp PPTase activity, qHTS; active means well fitted inhibition curve with a large enough effect; inconclusive means small, poorly fitted or top-dose-only effect, or another doubt; inactive means no such curve, though single readings can be large or run the other way;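 further: the enzyme is Sfp with the accession as filed and its product quenches rhodamine fluorescence; potency means the concentration at half of the fitted maximal effect; 0% = enzyme reaction without inhibitor and -100% = no enzyme wells; top concentration of the series not given in the record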
#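 Compounds were incubated with enzyme (final 15 nM) for 15 min at room temperature before substrate addition started the reaction. Fluorescence at 525 nm excitation, 598 nm emission was recorded immediately and after 30 minutes.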
# ClpP mod = qHTS Assay for Activators of ClpP. Potency, µM (series often up to 57.5 µM), without a hit: top-dose activity change, negative = active. purified B. subtilis ClpP, FRET peptide cleavage, 20 min. 340,000 compounds, 1.9% hits. ATP-dependent Clp protease proteolytic subunit (Bacillus subtilis (strain 168)), P80244; active = well fitted falling curve with a large enough effect; inconclusive = small, poorly fitted or top-dose-only effect; inactive = no such curve, though single readings can be large or run the other way; further: potency means the concentration at half of the fitted maximal effect; the source files actives as falling curves though it sought activators and does not explain the sign; nearly all actives have a fitted effect of over 65% in size; many hits overshoot -100%
# Target sequence (P80244 whole entry, looked up): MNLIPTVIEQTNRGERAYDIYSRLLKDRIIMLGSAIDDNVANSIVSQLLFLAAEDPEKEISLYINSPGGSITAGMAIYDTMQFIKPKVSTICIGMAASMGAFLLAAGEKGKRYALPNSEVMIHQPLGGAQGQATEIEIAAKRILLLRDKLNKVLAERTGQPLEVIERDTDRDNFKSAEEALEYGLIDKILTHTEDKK
#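 Purified B. subtilis ClpP, 10 microg/mL final in Tris/HCl pH8 with KCl, BSA, glycerol and Tween-20, cleaved an Abz/nitrotyrosine-quenched decapeptide. Fluorescence (ex 320, em 430) was read at 0 and 20 min at room temperature. Delta was normalized to 5.8 microM ADEP and DMSO/no-enzyme controls.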
# TRPML1 blocker = qHTS for Inhibitors of the Human Mucolipin Transient Receptor Potential 1 (TRPML1); activity change, negative = inhibition, % (test concentration not listed); Mucolipin-1 (Homo sapiens), Q9GZU1; TRPML1-inducible cells, Ca2+ dye fluorescence, FDSS; stronger effect = lower value; inhibition of EC80 agonist-evoked calcium signal; 390,000 compounds, 0.02% hits; in the data active means activity change below about -50%; inconclusive means about -30% to -50%; inactive means above about -30%;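 further: stimulus is agonist 54-4 at its EC80 concentration; on the % scale 0 is the no-effect control and ±100 the full control effect; compound concentration not given in the record; the text of the record puts the active cut at -80%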
#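 TRPML1-DL cells, Tet-induced overnight (~16 h, 37 °C) at 1,500 cells/well, were loaded with Ca8 no-wash dye plus quencher for 45-90 min at room temperature. Compounds were pinned during FDSS kinetic reading; agonist 54-4 at EC80 (4 uM final) then added.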
# TRPV1 PAM = HTS Assay for Compounds that Act as Potentiators of the Vanilloid Receptor 1. Transient receptor potential cation channel subfamily V member 1 (Homo sapiens), Q8NER1. TRPV1-expressing cells, Fluo-8 calcium influx, capsaicin EC20 potentiation; host cell line not named in the record; control for the full effect not named in the record. potentiation, % at 8.33 µM. AID 540277, 2011. 320,000 compounds, 0.02% hits; active means potentiation above 80%; inconclusive means 30% to 80%; inactive means below 30%; further: 0% is about no effect
# Target sequence (Q8NER1 whole entry, looked up): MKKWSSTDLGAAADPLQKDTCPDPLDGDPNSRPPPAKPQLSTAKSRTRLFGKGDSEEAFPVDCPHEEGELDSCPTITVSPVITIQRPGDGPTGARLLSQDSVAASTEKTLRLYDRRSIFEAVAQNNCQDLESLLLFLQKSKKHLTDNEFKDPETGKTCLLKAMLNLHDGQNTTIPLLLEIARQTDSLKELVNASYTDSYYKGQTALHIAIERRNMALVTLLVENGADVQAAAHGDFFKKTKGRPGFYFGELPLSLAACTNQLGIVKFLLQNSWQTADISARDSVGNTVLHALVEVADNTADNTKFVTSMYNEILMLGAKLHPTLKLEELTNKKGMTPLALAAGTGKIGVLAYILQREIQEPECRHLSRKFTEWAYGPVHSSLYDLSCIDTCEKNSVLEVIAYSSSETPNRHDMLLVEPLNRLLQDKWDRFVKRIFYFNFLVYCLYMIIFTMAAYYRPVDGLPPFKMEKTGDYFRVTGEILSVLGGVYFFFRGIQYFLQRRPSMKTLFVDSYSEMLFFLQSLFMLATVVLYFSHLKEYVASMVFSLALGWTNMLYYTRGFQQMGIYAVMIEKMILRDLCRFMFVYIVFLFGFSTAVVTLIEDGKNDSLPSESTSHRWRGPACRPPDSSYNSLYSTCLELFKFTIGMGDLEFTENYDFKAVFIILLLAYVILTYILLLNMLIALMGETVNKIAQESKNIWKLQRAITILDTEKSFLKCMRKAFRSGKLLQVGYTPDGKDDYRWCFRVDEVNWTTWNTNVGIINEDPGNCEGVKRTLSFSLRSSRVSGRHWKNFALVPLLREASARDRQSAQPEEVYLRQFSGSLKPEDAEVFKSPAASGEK
#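 TRPV1-expressing cells were cultured overnight at 35.5C and loaded with Fluo-8 calcium dye for 40 to 90 min at room temperature. After a 10 s baseline, compound was added and calcium influx was read kinetically for 3 min (ex 480/em 520 nm).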
# TRPML1 agonist = qHTS for Agonists of the Human Mucolipin Transient Receptor Potential 1 (TRPML1); AID 624414, 2012; TRPML1-expressing cells, Ca2+ dye fluorescence, FDSS; host cell line not named in the record; reference of the full effect not given here; 410,000 compounds, 0.12% hits; activation, % (test concentration not listed); Mucolipin-1 (Homo sapiens), Q9GZU1; in the data active = activation above about 50%; inconclusive = about 30% to 50%; inactive = below about 30%; further: 0% is about no effect; the text of the record puts the active cut at 80%
#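 Cells: TRPML1-DL, 1X Tet inducer, ~16 h at 37 degrees C/5% CO2. Dye: ABD Ca8 no-wash + quencher, 45-90 min RT. Read: 10 s baseline, compound add, 110 s agonist phase; 54-4 EC80 (4uM final), 110 s antagonist phase.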
# Menin MLL FP FL = qHTS Assay for Inhibitors Targeting the Menin-MLL Interaction in MLL Related Leukemias: Competition With Fluorescein Labeled MLL-derived Peptide. FP activity change, % at 61.4 µM. 290,000 tested, under 10 active. Fluorescence polarization, fluorescein-MLL peptide displacement from menin; inconclusive = falling polarisation curve, or a change in total fluorescence; inactive = total fluorescence flat and polarisation flat or rising; no compound was filed as active; the % refers to the polarisation; negative = inhibition;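 further: % of control where 0% means no effect; inhibitors lower the polarisation; unlabelled MLL peptide was the positive control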
# * = called active by the depositor; ? = inconclusive; nt = no result given; & = joins results of further samples; [ ] = dose if it differs, or a comment.
canonical_smiles	PINK1 modulator	Sfp PPTase inh	ClpP mod	TRPML1 blocker	TRPV1 PAM	TRPML1 agonist	Menin MLL FP FL
Cc1ccc(S(=O)(=O)N(C)c2c(C)ccc(S(=O)(=O)N3CCN(C)CC3)c2C)cc1	1.0%	2%	1.5%	23	-7	3.3	5.5
O=c1[nH]cc(CN2CCOCC2)c(=O)[nH]1	-2.9%	nt	nt	-1	nt	0.3	nt
Nc1nnnn1/N=C/c1ccc(F)cc1	-2.0%	-1%	-0.8%	-23	-6	1.2	-7.9
Cc1cccc(-c2nc3ccccc3c(=O)n2NC(=O)c2ccc([N+](=O)[O-])c(C)c2)c1	2.0%	2%	nt	-3	-8	-0.7	2.5
COC(=O)c1ccc(NC(=O)CNC(=O)c2sc3ccccc3c2Cl)cc1	1.5%	nt	-8.8%	-12	?	-0.5	nt
COC(=O)c1c(NC(=O)CC2NCCNC2=O)sc2c1CCCC2 (configuration not stated)	6.7%[38.3 µM]	5%	-10%	23	-3	-0.6	1.3
Cc1ccc(S(=O)(=O)NCC(=O)OCC(=O)Nc2cccc(S(=O)(=O)NC3=NCCCCC3)c2)cc1	1.7%	8%	25µM*	9	?	-0.8	0.3
O=C(OCc1cn([C@@H]2C[C@H](c3ccc(Cl)cc3)N(CC3CCCCC3)C[C@H]2O)nn1)c1ccccc1	?	nt	-3.9%	-6	nt	0.9	nt
Cc1onc(-c2c(F)cccc2Cl)c1C(=O)OCC(=O)NCc1ccco1	0.1%	-8%	-2.0%	-8	2	1.7	5.7
CC1(C(=O)NS(=O)(=O)C2CC2)CCCN(C(=O)c2ccc(F)c(Cl)c2)C1 (configuration not stated)	2.1%	nt	1.6%	nt	nt	-0.3	nt
CC(NC(=O)C1CCCN1S(=O)(=O)c1cccc2nsnc12)c1ccccc1 (configuration not stated)	-0.3%	-1%	-2.9%	25	11	-0.7	nt
O=C(O/N=C(\c1ccccc1)c1ccncc1)c1ccccc1Cl	0.1%	-3%	0.4%	-21	1	2.5	2.3
COc1ccc(Cl)cc1NCC(=O)Nc1ccc(OC)c(S(=O)(=O)N2CCCCC2)c1	2.2%	nt	-2.0%	-3	-1	0.6	nt
CC(=O)N1CCN(C(=O)CCNS(=O)(=O)c2ccccc2)CC1	1.0%	nt	1.9%	0	-4	0.1	nt
O=C(c1ccccc1)N1CCN(c2cc(-c3ccccc3)nc3cc(-c4cccc(Cl)c4)nn23)CC1	4.4%	nt	-45%	-15	nt	-0.5	nt
C=CC[C@H](CC(=O)N(CCO)Cc1ccccc1)C(=O)N[C@H](C)COC(=O)[C@@H](CC=C)CC(=O)OC(C)(C)C	0.5%	nt	0.5%	21	nt	-0.6	nt
Cc1nn(Cc2ccc(Cl)cc2Cl)c(Cl)c1/C=C/C(=O)OCC(=O)NCC(F)(F)F	0.8%	?	0.8%	19	2	4.3	-3.6
Cc1noc(C)c1CSCC(=O)Nc1nc2ccc(Oc3ccccc3)cc2s1	3.4%	2%	-2.5%	-12	11	1.0	0.8
CCN(CC)S(=O)(=O)c1ccc(OC(C)C)c(N)c1	3.3%	9%	2.8%	-7	-9	0.4	-2.5
Cc1n[nH]c(C)c1S(=O)(=O)N1CCCC(C(=O)NCc2cccs2)C1 (configuration not stated)	-1.0%	6%	-1.4%	-6	6	0.1	1.4
NC1=C(Cl)C(=O)c2ccccc2C1=O	-0.3%	nt	1.5%	-8	nt	0.5	nt
COc1cccc(C(=O)Nc2ccc(NC(=O)c3ccco3)nc2)c1	0.0%	2%	-0.2%	-5	-13	-0.3	6.6
O=C(COC(=O)CCc1ccc(S(=O)(=O)N2CCOCC2)cc1)NC1CCCC1	-1.2%	10%	-3.6%	-15	1	-0.1	0.3
Cc1ccc2c(c1)C(c1ccccc1)N(C(=O)CC(C)C)CC(=O)N2 (configuration not stated)	6.5%	-5%	nt	5	2	0.2	?
COC(=O)c1ccc(OC)c(Cn2c(=O)n(Cc3ccccc3)c(=O)c3c2c2cc(OC)ccc2n3C)c1	0.5%	nt	?	17	nt	-0.7	nt
CCN(CCCNC(=O)C1CCN(S(=O)(=O)CC)CC1)c1ccccc1	-0.6%[38.3 µM]	5%	-0.4%	0	1	-0.5	-2.2
COc1cc(C=NN2CCCCC2)cc(OC)c1OC	1.1%	nt	1.0%	-10	nt	-0.6	nt
CCC1CN(C(=O)NCc2ccc(C)cc2)c2cc(C)ccc2O1 (configuration not stated)	9.9%&0.1%	-15%	0.9%&1.0%	0&-3	-17	2.2&1.1	12
Cc1ccc(S(=O)(=O)N2[C@H](C(C)C)[C@H]3[C@H]4C(=O)N(c5ccccc5)C(=O)[C@H]4CC(=O)[C@H]3[C@@H]2c2ccccc2)cc1	1.2%	nt	-0.2%	nt	nt	0.3	nt
Cc1cc(C)cc(NC(=O)CN(c2ccc(F)cc2)S(C)(=O)=O)c1	2.8%	-21%	nt	-1	2	2.5	5.2
Cc1c(NC(=O)Cn2cc([N+](=O)[O-])cn2)c(=O)n(-c2ccccc2)n1C	1.6%	14%	-5.9%	21	18	-0.8	0.6
CCOC(=O)c1[nH]c2c(c1C)C(=O)CC(c1ccc(N(C)C)cc1)C2 (configuration not stated)	15%	17%	-2.1%	-8	5	0.2	-1.6
Cn1c(=O)c(C(=O)COC(=O)c2cc(C3CC3)nc3ccccc23)c(N)n(Cc2ccccc2)c1=O	2.0%	20%&14%	-20%	-10	?	-0.2	?
COc1ccc(CC2(C)OC(c3ccc(C)cc3)=NN2C(C)=O)cc1 (configuration not stated)	2.6%	-15%	-1.7%	24	-10	1.4	0.4
CSc1ccccc1OCc1cc(C(=O)N[C@H]2CCCCNC2=O)no1	2.1%	13%	-1.2%	-3	1	0.1	nt
Cn1c(=O)oc2cc(S(=O)(=O)CCC(=O)NCCc3ccc(Cl)cc3)ccc21	0.7%	nt	0.7%	-15	nt	-0.6	nt
CCOc1ccc(Nc2nc3cc(S(=O)(=O)N(CC)CC)ccc3o2)cc1	7.5%	8.9µM*	5.0%	8	-3	-0.7	3.0
CC(C)C(O)(c1ccccc1)C(CN1CCOCC1)c1ccccc1 (configuration not stated)	3.9%	-9%	-0.4%	22	-6	0.5	-0.6
CCc1c(C)nc2ncnn2c1N1CCCC(C(=O)NCCc2ccc(OC)cc2)C1 (configuration not stated)	0.3%[38.3 µM]	-4%	-1.2%	4	18	2.2	5.7
COC(=O)COc1ccc(-c2nccc(-c3ccccn3)n2)cc1	5.4%	-10%	nt	-11	3	1.7	-8.7
O=C(CSc1nccc(=O)[nH]1)c1cc2ccccc2o1	-1.5%	-6%	-4.6%	-10	2	-0.1	-0.1
COCCCNC(=O)C1CCN(c2cc(C)nc3c(-c4ccc(Cl)cc4)c(C)nn23)CC1	1.5%	nt	-15%	0	nt	-0.9	nt
C/C(=N/NC(=O)CNC(=O)C1COc2ccccc2O1)c1ccc2c(c1)OCCO2 (configuration not stated)	0.7%	8%	nt	16	?	0.3	-1.6
COCCNC(=O)C1(C)CCCN(C(=O)c2ccc(C#N)cc2)C1 (configuration not stated)	0.9%	nt	-1.2%	nt	nt	-0.3	nt
CN(Cc1nc(Cc2ccccc2F)no1)CC1(N2CCOCC2)CCCCC1	1.2%	0%	nt	10	0	0.6	-1.3
Cc1ccc(C(C)C)c(OCC(=O)Nc2cccc(S(=O)(=O)NC3=NCCCCC3)c2)c1	-2.4%	5%	-1.6%	45	-1	3.0	nt
COc1ccc(C)cc1Nc1n[n+](-c2ccccc2)c(-c2c(OC)ccc3ccccc23)s1	?	nt	-0.5%	10	-20	2.4	nt
CC(C)(C)c1n[nH]c2c1CCCC2	1.0%	18%	-22%	10	2	-0.7	-0.7
Cc1cc(C)n2cc(CSc3ccc(Cl)cc3)nc2n1	0.9%	10%	4.6%	4	-8	3.6	-1.4
CCCn1nc(C(=O)NC2CCCCCC2)c2ccccc2c1=O	4.2%	nt	-3.3%	31	-18	2.6	nt
CNc1nnc(SCC(=O)N2c3ccccc3NC(=O)CC2C)s1 (configuration not stated)	0.6%	nt	-5.0%	21	5	0.6	nt
CCn1c(=O)c2c(nc(SCC(=O)N3CCC(C)CC3)n2C)n(C)c1=O	2.5%	11%	nt	1	-8	0.4	-0.2
COCCSc1ccccc1C(=O)N1CCCC1	nt	-10%	0.0%	0	14	-0.1	-2.6
C=CCN1C(=O)CS/C1=N\S(=O)(=O)c1ccc(Cl)cc1	4.6%	8%	-1.7%	0	-17	0.6	25
CN(Cc1nc2ccccc2c(=O)[nH]1)Cc1cc(=O)oc2ccc3ccccc3c12	9.8%[38.3 µM]	-18%	-23%	32	-1	0.1	0.1
CCCCn1nnnc1SCC(=O)Nc1ccc2c(c1)OCCO2	-2.2%	2%	-0.4%	0	8	5.0	-0.4
c1ccc(CNCCN2CCNCC2)nc1	1.7%[38.3 µM]	-4%	-5.7%	10	9	-0.1	3.9
COc1cc(CN(C)CC2CCCN(CCc3ccc(F)cc3)C2)c(Cl)cc1O (configuration not stated)	-2.1%	10%	-4.5%	-5	15	-0.3	5.0
CCn1cc(C(=O)N[C@@H](CCSC)C(=O)NCCN2CCOCC2)c(=O)c2cc3c(cc21)OCO3	-0.5%	-4%	3.7%	24	1	-0.8	nt
CCOC(=O)/C=C1\SCC(=O)N1Cc1ccc(Br)cc1	3.9%	-8%	2.4%	20	-7	0.7	2.0
